Source: PubChem BioAssay (ICCB-Longwood Screening Facility, Harvard Medical School)
GIV-Gai inh: inhibitors of GIV peptide binding to Galpha-i3, primary screen, biochemical, fluorescence polarization, FITC-GIV GBA peptide, rat Galphai3 | Guanine nucleotide-binding protein G(i) subunit alpha-3 (Rattus norvegicus), P08753 | 90 min; active compounds read low; scaled: aluminum fluoride 0%, vehicle 100% | percent of control (FP), % (concentration not given with the values) | hit rate 0.42% among 210,000 | AID 1224905, 2016;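 active means replicate mean at 85% of control or lower, very high polarization wells dropped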;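 further: wells of about 15 µL received 100 nL stock; the first replicate is given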
Target sequence (P08753 whole entry, looked up): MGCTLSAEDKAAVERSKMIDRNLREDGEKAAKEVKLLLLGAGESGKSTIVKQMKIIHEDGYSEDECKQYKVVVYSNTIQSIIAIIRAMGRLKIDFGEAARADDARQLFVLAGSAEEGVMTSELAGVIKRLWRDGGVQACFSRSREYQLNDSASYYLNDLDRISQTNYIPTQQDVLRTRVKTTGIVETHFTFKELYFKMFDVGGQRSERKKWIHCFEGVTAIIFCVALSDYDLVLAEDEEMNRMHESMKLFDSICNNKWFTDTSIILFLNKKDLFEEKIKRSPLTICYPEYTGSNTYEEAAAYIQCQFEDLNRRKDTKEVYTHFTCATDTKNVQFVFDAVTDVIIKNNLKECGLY
Sa growth inh: S. aureus growth inhibition at 42 and 30 °C, primary screen, LtaS inhibitor project, RN4220, two temperatures; OD600, 20 h, 42 °C; active compounds read low; relative growth, % (test concentration not listed); hit rate 0.53% among 170,000;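 active means growth at 42 °C up to 50% and 20 or more points under that at 30 °C, or under 10% at both; inconclusive means no clear call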;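 further: 300 nL library stock went into each well; scaled to the means of positive and negative controls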
HCMV NEC inh: inhibitors of HCMV UL50-UL53 interaction, biochemical, HTRF | normalized percent inhibition | AID 1918969, 2023 | inhibition, % (test concentration not listed) | hit rate 0.15% among 190,000;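 active means both replicates at 50% or more, plus weaker picks with an unusually low signal ratio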;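 further: stock transfer was 100 nL into about 20 µL; 0% = negative control wells and 100% = wells with untagged competitor protein; inactives centre near -12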
Sa growth inh second temp: recorded beside Sa growth inh, whose call it bears; relative growth, %; measured here: growth at 30 °C;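 optical density after 20 h as mean of two plates; 100% = untreated growth and lower means inhibition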
* = called active by the depositor; ? = inconclusive; nt = no result given; & = joins results of further samples.

SMILES	GIV-Gai inh	Sa growth inh	Sa growth inh second temp	HCMV NEC inh
O=C(Oc1ccccc1)c1cccnc1Oc1ccccc1	102	110	90	nt
CC(NCc1ccc(F)cc1)C(=O)NC1CCCCC1 (stereo unspecified)	101	100	90	-18
COc1ccccc1N1CCN(C(=O)C2CCCN(S(=O)(=O)c3cn(C)cn3)C2)CC1 (stereo unspecified)	108	nt	nt	-16
Cc1sc2ncnc(OCC(=O)N(C)Cc3ccco3)c2c1C	nt	95	96	5
CN1C(=O)/C(=C\c2cccs2)c2ccccc21	nt	78	84	-59
CC(CC(=O)c1cccs1)C(=O)c1ccccc1 (stereo unspecified)	99	92	81	-17
CC(NC(=O)CCCN1C(=O)CCn2nc(-c3cn(C)c4ccccc34)cc21)c1ccccc1 (stereo unspecified)	101	95	95	nt
Cc1nnc(Sc2cc(C(=O)NCc3ccccn3)c3ccccc3n2)s1	104	99	85	nt
C=CCn1c(CNC(=O)c2cccs2)nnc1SCC(=O)Nc1nc2ccccc2s1	106	119	89	-18
O=c1oc(-c2cccc(C(F)(F)F)c2)nn1-c1ccc(C(F)(F)F)cn1	103	105	77	-32
CCOC(=O)c1cccc(NC(=O)CCn2ccc(C)n2)c1	100	89	83	-13
Cc1ccc(NC(=O)COC(=O)CSc2n[nH]c(-c3ccccc3)n2)cc1	nt	92	82	-7
COc1ccc(NC(=O)c2c(NC(=O)Cc3ccccc3)sc3c2CCCC3)cc1	105	99	100	-2
O=C(Nc1ccc2c(c1)OCCO2)C1CCCN(S(=O)(=O)Cc2ccccc2)C1 (stereo unspecified)	108	83	82	3
COC(=O)c1ccc2oc(=O)c(S(=O)(=O)c3ccccc3)cc2c1	107	93	92	nt

The list goes on, overlapping the part above by seven compounds.
SMILES	GIV-Gai inh	Sa growth inh	Sa growth inh second temp	HCMV NEC inh
C=CCn1c(CNC(=O)c2cccs2)nnc1SCC(=O)Nc1nc2ccccc2s1	106	119	89	-18
O=c1oc(-c2cccc(C(F)(F)F)c2)nn1-c1ccc(C(F)(F)F)cn1	103	105	77	-32
CCOC(=O)c1cccc(NC(=O)CCn2ccc(C)n2)c1	100	89	83	-13
Cc1ccc(NC(=O)COC(=O)CSc2n[nH]c(-c3ccccc3)n2)cc1	nt	92	82	-7
COc1ccc(NC(=O)c2c(NC(=O)Cc3ccccc3)sc3c2CCCC3)cc1	105	99	100	-2
O=C(Nc1ccc2c(c1)OCCO2)C1CCCN(S(=O)(=O)Cc2ccccc2)C1 (stereo unspecified)	108	83	82	3
COC(=O)c1ccc2oc(=O)c(S(=O)(=O)c3ccccc3)cc2c1	107	93	92	nt
O=C(CCn1cnc2onc(-c3cc(F)cc(F)c3)c2c1=O)NCc1ccc(F)cc1	110	nt	nt	-4
O=C(OCc1nc2ccccc2s1)C1CCCCC1	nt	108	98	-18
O=C(NCc1ccco1)C(C(=O)c1ccccc1)n1ccccc1=O (stereo unspecified)	97	114	85	3
COc1cccc(NC(=O)C2CCN(C(=O)N3CC(C)Oc4ccccc43)CC2)c1 (stereo unspecified)	109	81	86	4
O=C(C1CCN(c2ccc(-c3ccc(F)cc3)nn2)CC1)N1CCCC1	106	nt	nt	-12
Cc1ccc(C2c3[nH]c4ccccc4c3CCN2C(=O)Nc2cccc(F)c2)cc1 (stereo unspecified)	103	nt	nt	-15
CCn1nnc2cc(C(=O)NCc3ccccc3CN3CCCC3)ccc21	nt	81	86	-14
CC1Cc2ccccc2N1C(=O)C1CCN(C(=O)c2cc(-c3ccccn3)n[nH]2)CC1 (stereo unspecified)	106	nt	nt	-22
O=C(NCc1ccccc1)c1ccc(-n2cnc3cccnc32)cc1	102	nt	nt	-4&-5
COc1cc(OC)c(Nc2cc(C)nc3nc(-c4ccc(C)cc4)nn23)cc1Cl	103	nt	nt	-21
O=C(/C=C/c1ccccc1Cl)Nc1nc(-c2cccs2)ns1	99	100	84	-31
CCN(CC)C(N)=S	nt	102	87	-4
COc1ccc(NC(=O)CCc2c(C)nn(-c3ccc(N4CCOCC4)nn3)c2C)cc1Cl	102	79	83	nt
CN(C(=O)Nc1ccccc1)C1CCCc2ccccc21 (stereo unspecified)	nt	77	87	-22
COc1ccc(NC(=O)CSc2nnc(-c3ccoc3C)o2)c(OC)c1	105	nt	nt	-29
Cc1ccc(N(Cc2cccs2)C(=O)C(C)Oc2ccc(Cl)c(C)c2)cc1 (stereo unspecified)	101	86	72	-23
CCc1cc(=O)n2[nH]c(NCc3ccccc3C)nc2n1	104	nt	nt	-4
CC(=O)Nc1ccc2c(c1)sc(=NC(=O)c1cccs1)n2C	108	105	87	6
CCNc1nc(Cl)nc(NC2CCCCC2)n1	99	74	85	-28
O=C(Cn1cnc2sc3c(c2c1=O)CCC3)Nc1ccc(Oc2ccccc2)cc1	99	125	107	6
Cc1nnc(SC(C)C(=O)NCc2ccccc2)[nH]c1=O (stereo unspecified)	100	106	97	-14
CCOc1ccc(CNC(=O)CCn2nc(C)cc2C)cc1OC	97	103	92	-6
O=C(c1cncn1-c1ccccc1)N1CCCC(c2nc3ccccc3s2)C1 (stereo unspecified)	nt	92	95	-28
COc1ccc2nc(C)cc(SCC(=O)O)c2c1	97	102	90	-72
CC1(C)CC(=O)C2=C(C1)Nc1nc(SCc3ccccc3)[nH]c(=O)c1C2c1ccc(Br)cc1 (stereo unspecified)	103	nt	nt	-14
COc1ccc(OC)c(C2=NOC(C(=O)NC3CCCC3)C2)c1 (stereo unspecified)	99	87	88	-2
COc1ccc(C(=O)Nc2ccc(Oc3ccccc3)cc2)cc1I	nt	57	58	-1
O=C(Cc1ccccc1)Nc1ccc(-c2nc3cccnc3s2)cc1	109	94	84	nt
N#CCC(=O)Nc1nc2ccccc2nc1Cl	nt	88	58	-74
CCc1nnc(N2C(=O)c3ccccc3C2(O)c2ccccc2)s1 (stereo unspecified)	106	117	96	-7

The list goes on; it opens with the 4 that closed the last part.
SMILES	GIV-Gai inh	Sa growth inh	Sa growth inh second temp	HCMV NEC inh
COc1ccc(C(=O)Nc2ccc(Oc3ccccc3)cc2)cc1I	nt	57	58	-1
O=C(Cc1ccccc1)Nc1ccc(-c2nc3cccnc3s2)cc1	109	94	84	nt
N#CCC(=O)Nc1nc2ccccc2nc1Cl	nt	88	58	-74
CCc1nnc(N2C(=O)c3ccccc3C2(O)c2ccccc2)s1 (stereo unspecified)	106	117	96	-7
Cc1cc(C)c2c(=O)[nH]c(SCC(=O)O)nc2n1	99	87	90	-8
Cc1ccc2oc(C(=O)N3CCC(c4nc5ccccc5s4)CC3)c(C)c2c1	98	79	55	-12
COC(=O)c1ccccc1NC(=O)c1ccc2nc(N3CCCCC3)sc2c1	108	100	86	nt
Cc1cc(C)c2oc(C(=O)Nc3ccc(S(=O)(=O)N4CCCCC4)cc3)cc(=O)c2c1	99	99	83	-5
CCOc1ncccc1C(=O)OCc1ccc(O)c2ncccc12	nt	61	63	-34
CCc1nc(-c2ccc(N3CCN(C(=O)C4CC(=O)N(c5ccc(C)c(C)c5)C4)CC3)cc2)no1 (stereo unspecified)	108	nt	nt	0
Cc1ccc(S(=O)(=O)CCN(Cc2cccnc2)C(=O)c2ccccc2)cc1	104	104	86	-5
O=c1[nH]cnc2c(-c3ccc(F)cc3)csc12	98	nt	nt	1
Cc1c(C(=O)O)sc(=S)n1-c1ccccc1	97	92	94	-6
COc1cccc(N/C=C(\C#N)C(=O)N2CCOCC2)c1	101	96	87	2
CC(C)(C)c1cnnn1-c1ccc(NC(=O)c2ccc3c(c2)OCO3)cc1	101	99	84	-12
COc1ccc(NS(=O)(=O)c2cc3c(cc2C)N(C(C)=O)CCO3)cc1	103	99	100	nt
O=C1CC(c2ccccc2)Cc2[nH]ncc21 (stereo unspecified)	106	100	98	-23
CSc1nc(C)cc(C)c1C(N)=O	97	103	88	-9
CCOc1ccccc1NC(=O)N1CCc2c([nH]c3ccccc23)C1CC (stereo unspecified)	102	nt	nt	-15
Cc1cnn(C(=S)NCCc2ccccc2)c1	100	103	95	-4
CCC1CN(S(=O)(=O)c2cc(-c3onc(C)c3C)ccc2C)c2cc(Cl)ccc2O1 (stereo unspecified)	107	111	93	nt
CC(C)(C)C(=O)COC(=O)Cc1ccc(-c2ccccc2)cc1	nt	100	79	-17
COC(=O)CCCCC1SCC2NC(=O)NC21 (stereo unspecified)	103	98	80	-10
OC(CN1CCOCC1)c1ccccc1 (stereo unspecified)	104	107	88	-16
Cc1cc2nc(N(C)Cc3cccnc3)c3ccccc3n2n1	nt	87	75	-12
O=c1[nH]cc(N=Cc2cccnc2)c(=O)[nH]1	99&100	78&99	86&111	-44&-20
CNc1snc(C)c1C#N	nt	78	90	-5
O=C(NC1CCCC1)c1nnc(Cc2ccc(F)cc2)o1	97	93	94	6
CCOc1ccc(N2C(=O)c3[nH]nc(-c4ccccc4)c3C2c2ccc(O)c(OC)c2)cc1 (stereo unspecified)	106	126	90	nt
CC(C)C(=O)N1c2nc(-c3ccco3)nn2C2(CCCCC2)[C@@H]2CCCC[C@@H]21	100	91	95	-7
N#Cc1ccccc1COC(=O)c1ccc2c(=O)n3c(nc2c1)CCCCC3	nt	82	80	-18
CCCCCCn1c(C2CCCO2)nc2ccccc21 (stereo unspecified)	112	nt	nt	2
CCOc1cc2c(cc1OCC)C1C(C(=O)NCCOC)c3ccccc3C(=O)N1CC2 (stereo unspecified)	96	91	86	-19
Cc1cc(C)c2nc(C)cc(C(N)=O)c2c1	102	nt	nt	-14
CC(C)C(C(=O)N1CCN(c2ccc(C(F)(F)F)cn2)CC1)c1ccc(Cl)cc1 (stereo unspecified)	nt	70	85	-22
CC(C)C1NC(=O)NC1=O (stereo unspecified)	nt	105	101	-7
COc1ccc2cc3c(N)nn(C(=O)Cc4c[nH]c5ccccc45)c3nc2c1	107	111	60	-21
O=C(O)CCNC(=O)Nc1cccc2ccccc12	102	101	86	-40
CC(C)(C)c1ccc(OCCCC(=O)OCc2ccco2)cc1	nt	89	89	-12
Cc1noc(C)c1S(=O)(=O)N1CCCC(C(=O)Nc2ccc(C(C)C)cc2)C1 (stereo unspecified)	104	99	102	11
COC(=O)CCS(=O)(=O)c1ccc(Cl)cc1	100	120	102	27
c1ccc(N2CCN(c3ncnc4[nH]ncc34)CC2)cc1	97	104	88	nt
COC(=O)/C(C#N)=C/c1cc(C(=O)OC)n(-c2ccc(Cl)cc2)c1	107	103	102	-7
Cc1cccc(C)c1NC(=O)CCC(=O)N1Cc2ccccc2Oc2ncccc21	104	88	92	nt
COc1cc(C2CC(=O)Nc3c2c(=O)n(C)c(=O)n3C)ccc1OCc1ccccc1 (stereo unspecified)	102	nt	nt	13
COC(=O)c1c[nH]n2c(=O)cc(C)nc12	105	89	89	nt
COc1ccc(-c2ccnc(-c3cccs3)n2)cc1	103	61	73	-10
Cc1nc2ccccn2c1-c1ccnc(=S)[nH]1	104	?	nt	-64
O=C1/C(=C\c2ccco2)N=C(SCc2nnc(-c3ccccc3)o2)N1c1ccc(OC(F)F)cc1	nt	103	98	-19
Cc1ccc(CN(C(=O)COc2c(C)cccc2C)C2CCS(=O)(=O)C2)o1 (stereo unspecified)	97	104	98	6
O=C(O)c1cnn2c(-c3ccc4c(c3)OCO4)ccnc12	103	nt	nt	-65
Cc1ccccc1Cn1cnc2nc3c(cc2c1=O)CC(C)CC3 (stereo unspecified)	112	106	101	nt
O=C(Nc1ccccc1)NC1(C(=O)NCc2ccc3c(c2)OCO3)CCCCC1	102	111	100	-17
CCOc1ccccc1NC(=O)C1=C(C)Nc2ncnn2C1c1cccs1 (stereo unspecified)	96	108	93	nt
Cc1ccc(C)c(N2CCN(C(=O)CCCn3c(=O)c4cccn4c4cccnc43)CC2)c1	109	79	53	5
CCCCc1c(C)nc2c(OC)cccc2c1SCCC(=O)O	nt	90	94	-4
CC(O)Cc1n[nH]c(=S)n1-c1ccccc1 (stereo unspecified)	100	106	90	0
COC(=O)c1ccc2c(=O)[nH]c(COC(=O)Cc3n[nH]c(=O)c4ccccc34)nc2c1	nt	76	63	-22
CCN(CC(=O)NC1CCS(=O)(=O)C1)C(=O)c1ccccc1Sc1ccccc1C#N (stereo unspecified)	nt	95	96	13
Cc1ccc(S(=O)(=O)NCc2ccc(/C=C(/C#N)C(=O)NC3CCCCC3)o2)cc1	110	98	87	-42
COc1ccc(-n2c(=O)cc(N3CCCC3)[nH]c2=O)cc1	96	129	86	1
Cc1noc(-c2ccc(NCc3ccccc3)c([N+](=O)[O-])c2)n1	106	98	87	-35
CC(Sc1nnc(-c2ccccc2Br)o1)C(=O)Nc1cccc(Cl)c1 (stereo unspecified)	102	103	64	-21
COc1ccc(-c2cc(C(F)(F)F)nc(SCC(=O)N(C)C3CCCCC3)n2)cc1	101	88	93	nt

Results in GIV-Gai inh and Sa growth inh second temp, for six of the compounds above:
canonical_smiles | GIV-Gai inh | Sa growth inh second temp
Cc1ccc(S(=O)(=O)CCN(Cc2cccnc2)C(=O)c2ccccc2)cc1 | 104 | 86
CN(C(=O)Nc1ccccc1)C1CCCc2ccccc21 (stereo unspecified) | nt | 87
O=C(NC1CCCC1)c1nnc(Cc2ccc(F)cc2)o1 | 97 | 94
CCCCCCn1c(C2CCCO2)nc2ccccc21 (stereo unspecified) | 112 | nt
Cc1ccc(CN(C(=O)COc2c(C)cccc2C)C2CCS(=O)(=O)C2)o1 (stereo unspecified) | 97 | 98
Cc1ccc(S(=O)(=O)NCc2ccc(/C=C(/C#N)C(=O)NC3CCCCC3)o2)cc1 | 110 | 87
